Screening results (PubChem)
Marburg entry inh = qHTS for inhibitors of binding or entry into cells for Marburg Virus | 300,000 tested, 1.8% active | Marburg virus pseudotyped entry inhibition, cell reporter; control for the full effect not named in the record; about a third of the inactives were read at about 46 µM | Potency, µM (titrated, usually from 37.8 µM), for inactives: top-dose activity change, negative = inhibition, most hits filed as inhibitors; active = well fitted inhibition curve with a large enough effect; inconclusive = small, poorly fitted or top-dose-only effect, or effect the other way; inactive = flat fitted curve, though single readings scatter; tested in HEK293 cells; about a fifth of its hits are not listed in these tables; note: % is set by controls: 0 for no effect and ±100 for the full control effect; luciferase read-out
2A StopGo = High Throughput Screening for Foot and Mouth Disease Virus Antivirals; human cells with a luciferase reporter of 2A StopGo recoding; control for the full effect not named in the record; Potency, µM (highest dose often 57.9 µM), for the others: top-dose signal change, negative = less light; 410,000 tested, 1.2% active; active = well fitted falling curve with a large enough effect; inconclusive = small, poorly fitted or top-dose-only effect; inactive = no such curve, though single readings can be large or run the other way; tested in HEK293T cells; note: % is set by controls: 0 for no effect and ±100 for the full control effect; nearly all actives have a fitted effect of over 45% in size; luciferase light after 4 h
SARS PLP yeast = qHTS of Yeast-based Assay for SARS-CoV PLP | Potency, µM (highest dose often 32.9 µM), for the others: at the highest dose activity, positive = growth rescue | AID 485353, 2010 | S. cerevisiae expressing SARS-CoV PLpro, growth rescue; control for the full effect not named in the record | 330,000 tested, 0.19% active; note: 0% is about no effect; nearly all actives have a fitted effect of over 55% in size; growth read by luminescence after 48 h
Cruzain noTriton = qHTS Assay for Promiscuous and Specific Inhibitors of Cruzain (without detergent). Cruzipain (Trypanosoma cruzi), P25779. purified cruzain, Z-FR-AMC fluorescence, no detergent. Potency, µM, for inactives: max response, negative = inhibition, most hits filed as inhibitors. 200,000 tested, 2.3% active; active = well fitted curve in the direction sought with a large enough effect; inconclusive = small, poorly fitted or top-dose-only effect, or another doubt; inactive = no such curve, though single readings can be large; an effect the other way counts as inactive or inconclusive;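 note: plate controls were enzyme without inhibitor for no effect and buffer without enzyme for full effect; nearly all actives have a fitted effect of over 40% in size; top concentration of the series not given in the record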
Target sequence (P25779 123-467 limits assumed): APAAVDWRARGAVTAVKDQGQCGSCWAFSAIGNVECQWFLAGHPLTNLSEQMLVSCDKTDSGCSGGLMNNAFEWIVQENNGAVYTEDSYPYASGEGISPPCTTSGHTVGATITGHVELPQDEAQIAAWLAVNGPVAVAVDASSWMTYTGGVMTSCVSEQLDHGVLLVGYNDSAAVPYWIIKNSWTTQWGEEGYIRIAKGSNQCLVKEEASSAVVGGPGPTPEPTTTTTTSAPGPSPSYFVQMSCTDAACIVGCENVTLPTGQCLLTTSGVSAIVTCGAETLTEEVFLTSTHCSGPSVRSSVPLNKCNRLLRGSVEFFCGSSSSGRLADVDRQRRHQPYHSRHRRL
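Purified cruzain at 1.5 nM, pre-incubated 15 min with compound at room temperature in 100 mM sodium acetate pH 5.5, 5 mM DTT, 0.00005% Triton X-100. Reaction started with 2 uM Z-FR-AMC; AMC fluorescence increase over 60 s gives rate.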
Cruzain inh Det = qHTS Assay for Promiscuous and Specific Inhibitors of Cruzain (with detergent). Potency, µM, for inactives: max response, negative = inhibition, most hits filed as inhibitors. Cruzipain (Trypanosoma cruzi), P25779. AID 1478, 2009. 200,000 tested, 0.43% active. purified cruzain, Z-FR-AMC fluorescence, 0.01% Triton; active = well fitted curve in the direction sought with a large enough effect; inconclusive = small, poorly fitted or top-dose-only effect, or another doubt; inactive = no such curve, though single readings can be large; an effect the other way counts as inactive or inconclusive;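 note: plate controls were neutral wells for no effect and buffer without enzyme for full effect; nearly all actives have a fitted effect of over 40% in size; top concentration of the series not given in the record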
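Enzyme 1.5 nM, Z-FR-AMC 2 uM, NaOAc 100 mM pH 5.5, DTT 5 mM, Triton X-100 0.01%; 15 min RT compound preincubation; kinetic ex360/em450, 60 s delta.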
NS1 inh = qHTS Assay for Inhibitors of Influenza NS1 Protein Function; S. cerevisiae slowed by influenza A NS1, growth recovery by OD600; Potency, µM (top dose mostly 46.1 µM), for inactives: top-dose activity, positive = more growth; 270,000 tested, 0.4% active; AID 2326, 2010; note: actives are rising curves; nearly all actives have a fitted effect of over 50% in size
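Compounds were scored for reversing the slow growth caused by influenza A NS1 in S. cerevisiae, measured by optical density at 600 nm. Assay medium contained 2% galactose at pH 6.0; NS1-free yeast of the same strain were the positive control.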
LASV entry inh = qHTS for Inhibitors of binding or entry into cells for Lassa Virus; Lassa virus pseudotype entry inhibition, cell reporter; control for the full effect not named in the record; Potency, µM (highest dose often 37.9 µM), for the others: top-dose activity change, negative = inhibition, usual class: inhibitors; 300,000 tested, 1.2% active; active means well fitted inhibition curve with a large enough effect; inconclusive means small, poorly fitted or top-dose-only effect, or effect the other way; inactive means flat fitted curve, though single readings scatter; tested in HEK293 cells; note: % is set by controls: 0 for no effect and ±100 for the full control effect; nearly all actives have a fitted effect of over 50% in size; luciferase read-out
RE007 growth inh = qHTS Assay for Inhibitors of the HIV-1 protein Vpr. Potency, µM (titrated, usually from 92.2 µM), without a hit: at the top dose activity change, negative = less growth. 360,000 tested, 0.21% active. AID 651644, 2012. S. pombe RE007 Vpr strain, BacTiter-Glo ATP luminescence, 24 h; control for the full effect not named in the record; active = well fitted falling curve with a large enough effect; inconclusive = small, poorly fitted or top-dose-only effect; inactive = no such curve, though single readings can be large or run the other way;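 note: % is set by controls: 0 for no effect and ±100 for the full control effect; nearly all actives have a fitted effect of over 50% in size; the assay follows cell death caused by Vpr and the record does not say whether a fall means rescue or toxicity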
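Fission yeast RE007 carrying one integrated HIV-1 vpr copy, seeded at OD 0.01 in PMG+AL medium with 23 nL pinned compound. Grown 24 h at 30 degrees; viability read by BacTiter-Glo luminescence after 5 min.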
* hit, by the source's call; ? = inconclusive; . = no result given; & = joins results of further samples; [ ] = dose if it differs, or a comment. Unless noted, calls come from the whole dose curve; as a rule, active means well fitted rising curve with a large enough effect; inconclusive means small, poorly fitted or top-dose-only effect; inactive means no such curve, though single readings can be large or run the other way. Potency is the fitted concentration of half-maximal effect.

smiles	Marburg entry inh	2A StopGo	SARS PLP yeast	Cruzain noTriton	Cruzain inh Det	NS1 inh	LASV entry inh	RE007 growth inh
Cc1c(C)c2ccc(OC(C)C(=O)NCCCN3CCOCC3)c(C)c2oc1=O (stereo not drawn)	.	-7.2%	1.4%	.	.	-0.2%	.	7.1%
Cc1[nH]c(=S)c(C#N)c(C)c1Cc1ccccc1	.	-0.2%	-1.3%	.	.	5.6%	.	38.5%
Cc1oc(-c2ccccc2Cl)[n+]([O-])c1C	23.4%	-3.3%	17.2%	-0.6%	5.5%	10.1%	-1.9%	-7.4%
CCOC(=O)c1ccc(NC(=O)c2oc(=O)c3ccccc3c2-c2ccccc2)cc1	.	0.0%	.	-0.3%	1.1%	.	-2.3%[46.1 µM]	.
Cc1ccc(CNC(=O)Cn2c(=O)cc(C(F)(F)F)c3c(C)nn(C)c32)cc1	.	-15.4%	.	-0.5%	-1.6%	.	-13.3%[46.1 µM]	.
Cc1nnc(NC(=O)CSc2nnc3scc(-c4ccc(C)c(C)c4)n23)s1	-11.1%	-15.0%	-1.6%	-14.1%	-1.1%	?	18.6%	1.4%
CC(=O)Nc1nc(CC(C)C)cc2c1c(=O)oc1ccccc12	-22.0%&6.1%	-5.1%	-1.6%	-0.3%	-3.7%	-3.5%	17.2%	5.1%
CCc1nn(CC(=O)NC(C)CCc2ccccc2)c(=O)c2cc3occc3n12 (stereo not drawn)	23.1%[46.1 µM]	-10.0%	2.0%	.	.	10.1%	19.6%[46.1 µM]	-16.0%
Cc1ccc(CN2CC(C(=O)O)CC2=O)cc1 (stereo not drawn)	?	5.5%	-2.5%	7.8%	6.0%	4.4%	0.9%	-12.0%[3.69 µM]
CN1CCN(C(=O)CN(C)S(=O)(=O)c2ccc3ccccc3c2)CC1	17.7%[46.1 µM]	-14.3%	0.4%	.	.	2.0%	-2.0%	3.8%
O=C(CCN1C(=O)/C(=C/c2ccccc2F)SC1=S)Nc1cccnc1	-0.8%	-24.0%	0.6%	.	.	-2.6%	9.7%	21.2%
N#CC(c1ccccc1)N(CCCCl)C(=O)c1ccccc1 (stereo not drawn)	-0.6%	-10.8%	1.5%	-1.0%	-0.8%	1.7%	.	12.0%
O=c1nc2s/c(=C\c3ccc(-c4ccccc4[N+](=O)[O-])o3)c(=O)n2nc1-c1ccccc1	-6.1%	-8.7%	-0.9%	?	-24.4%	3.1%	11.3%	0.8%
C=CCNC(=S)N/N=C(\C)c1ccc(OC)cc1	-2.8%[46.1 µM]	-5.9%	-17.3%	0.3%	-5.7%	-15.4%	?	?
O=C(c1ccccc1)N1CCN(c2ncnc3c2cnn3-c2ccccc2)CC1	?	?	-0.7%	-2.1%	0.4%	0.2%	1.7%	-28.7%
CCOc1ccc(NC(=O)CC2CC(C)(C)OC2=O)cc1 (stereo not drawn)	8.6%	21.5%	3.3%	17.5%	4.5%	5.3%	18.8%	8.7%
CC(=NCc1ccc2c(c1)OCO2)c1c(O)[nH]c(=O)[nH]c1=O	7.4%	-24.2%	-3.1%	-12.3%	2.1%	11.4%	8.4%	7.3%
CC(NC(=O)Nn1cnnc1)(C(F)(F)F)C(F)(F)F	1.5%	13.1%	2.4%	-4.9%	4.6%	1.5%	3.3%	-10.6%
COc1ccc2ccccc2c1/C=N/Nc1cccc(C(=O)O)c1	2.7%[46.1 µM]	12.1%	0.8%	.	.	-1.4%	12.7%	-9.4%
CC(C)=NN/C(N)=N/C(=S)Nc1ccc(C)cc1	6.8%	27.6%	-15.4%	-9.3%	-6.4%	14.1%	2.6%	-10.1%
CCCCn1c(N)c(N(CC)C(=O)CCNC(=O)c2ccc(Cl)cc2)c(=O)[nH]c1=O	0.2%	-11.8%	0.1%	.	.	.	24.2%	-12.8%
CCCOC(=O)CSC1=C(C#N)C(c2ccccc2OC)C(C#N)C(=O)N1 (stereo not drawn)	6.2%	-20.7%	0.6%	7.6%	-2.2%	20.8%	-3.7%	0.7%
C=CCNc1nc(N2CCCCC2)c(C#N)c2c1CN(Cc1ccccc1)CC2	?	?	1.5%	1.5%	-2.7%	-9.0%	?	-10.4%
COc1ccc(C2Nc3ccccc3C(=O)N2NS(C)(=O)=O)cc1 (stereo not drawn)	?	45.6%[activator]	-8.6%	.	.	.	-8.3%	-14.7%
COc1ccc(CCCC(=O)NC2CCCCC2C)c(C)c1 (stereo not drawn)	-8.6%	-8.7%	9.7%	-5.8%	5.3%	-29.9%	-6.3%	1.5%
O=C(Nc1nc2c(s1)CCCC2)c1cccc(S(=O)(=O)N2CCCc3ccccc32)c1	?	?	5.5%	25.1µM*	-5.7%	27.4%	?	-1.5%
Cc1ccccc1C(=O)Nc1cc(-c2ccc(Cl)cc2)nn1-c1ccccc1	.	11.2%	.	?	3.9%	.	?	.
Cc1cc2ncc(-c3cccc(Cl)c3)cn2n1	?	1.1%	2.8%	.	.	.	27.0%[46.1 µM]	-3.5%
NCCCCCc1nnc(SCc2ccc(Cl)c(Cl)c2)o1	3.0%	-5.4%	1.5%	0.5%	-2.0%	-5.2%	2.7%	-3.6%[3.69 µM]
CCOc1ccc(S(=O)(=O)N2CCCC(C(=O)N3CCOCC3)C2)cc1C (stereo not drawn)	.	-34.6%	0.8%	.	.	-18.5%	.	-5.8%
COC(=O)c1cc2c(ccn2-c2ccc(F)cc2)n1CC(C)C	0.0%	-19.0%	-20.7%	-0.8%	-5.1%	-12.4%	0.0%	4.7%
CCOc1ccc2[nH]c(=O)c(C(c3nnnn3C3CCCCC3)N3CCN(CC)CC3)cc2c1 (stereo not drawn)	9.1%&9.1%	13.6%	-1.9%	-11.2%	-4.9%	-5.4%	7.4%	-9.7%
CC(=O)Nc1cccc(N2C(=O)CC(N3CCC(C(=O)N4CCCCC4)CC3)C2=O)c1 (stereo not drawn)	5.2%	0.0%	0.4%	11.6%	1.5%	-0.4%	-2.6%	12.3%
CCCn1c(=O)sc2cc(NC(=O)COc3ccc(Cl)cc3)ccc21	-29.5%[46.1 µM]	?	.	-4.4%	-7.0%	.	-13.1%[46.1 µM]	.
COCCCNC(=O)Cn1cc2c(n1)CCC(C)C2 (stereo not drawn)	-0.9%	-18.8%	-1.9%	-0.6%	0.0%	?	.	-2.5%
CCc1ccc(CNCCc2ccccc2F)cc1	-1.2%	7.0%	-1.0%	13.1%	-1.7%	12.4%	?	4.7%
O=C(O)c1cccc(S(=O)(=O)N2CCN(c3ccccn3)CC2)c1	8.6%[46.1 µM]	-2.3%	20.3%	.	.	0.6%	22.1%[46.1 µM]	21.3%
CCCc1cc(=O)[nH]c(SCC(=O)c2cc(C)n(CCOC)c2C)n1	9.9%	11.0%	-1.5%	6.2%	0.6%	-1.9%	5.5%	6.1%
COc1cc(/C=C/c2noc(-c3ccccc3O)n2)cc(OC)c1OC	17.5%	26.9%	-17.3%	?	-6.3%	-5.4%	9.7%	-5.6%
O=C(Cc1ccccc1)Nc1ccc(S(=O)(=O)N2CCOCC2)cc1	?	3.6%	0.3%	.	.	7.6%	10.9%[46.1 µM]	-19.8%
CCOC(=O)c1cc(=O)c2c([N+](=O)[O-])ccc(OC)c2o1	-14.7%	3.0%	-4.1%	-8.6%	-2.2%	1.7%	-4.7%	-8.7%
Cc1ccc(S(=O)(=O)c2nc(-c3ccc(F)cc3)oc2SCC(=O)NC2CCCCC2)cc1	17.5%[46.1 µM]	0.0%	.	3.9%	-1.7%	.	7.4%[46.1 µM]	.
O=C(CC1(O)C(=O)N(CCc2ccccc2)c2ccc(Br)cc21)c1ccc(F)cc1 (stereo not drawn)	?	3.9%	.	?	-9.0%	.	-12.9%[46.1 µM]	.
O=C(N/N=C/c1ccc(OC(F)F)cc1)C1=COCCO1	?	5.5%	-0.1%	.	.	.	?	3.2%
COc1ccc(OC)c(CCNC(=O)c2cnn(-c3ccccc3)c2C2CCN(C(=O)OC(C)(C)C)CC2)c1	.	-20.0%	.	?	-10.4%	.	?	.
O=C(NCCCc1ccccc1)c1ccc(CS(=O)Cc2ccccc2Cl)o1 (stereo not drawn)	-14.5%[46.1 µM]	-18.1%	-0.7%	.	.	-5.8%	4.2%[46.1 µM]	-0.6%
CC(=O)Nc1ccc(NC(=O)c2cc(=O)c3ccc(C)cc3o2)cc1	-23.8%	-3.7%	1.1%	.	.	8.4%	1.0%	0.1%
Cc1noc(C)c1S(=O)(=O)Nc1ccccc1Cl	.	-19.9%	?	.	.	-18.4%	.	-11.7%
Cc1cc(C)c2c(c1)/C(=N/Nc1ccc(S(N)(=O)=O)cc1[N+](=O)[O-])CCC2	.	-7.9%	-0.8%	.	.	8.4%	.	-6.7%
NC(=O)C1=C[C@H](c2ccc3c(c2)OCO3)C[C@H](OCc2ccc(CO)cc2)O1	.	56.3%[activator]	-0.1%	.	.	2.7%	.	12.0%
O=C(Nc1ccc(Cl)cc1)OCc1cncs1	0.0%	-24.3%	4.2%	3.6%	-3.9%	-1.9%	-33.5%	-16.5%
COc1ccc(CCN(Cc2cccs2)S(=O)(=O)c2ccc(S(=O)(=O)N(C)C3CCCCC3)cc2)cc1OC	3.9%	?	17.5%	?	-2.9%	3.1%	-13.4%	-2.9%
Cc1ccc(SCCNC(=O)c2ccccc2C)cc1	-7.6%	0.0%	-1.6%	-2.4%	4.9%	-69.0%	?	12.1%
C=CCn1cnc2c(nnn2-c2ccc(C)c(C)c2)c1=O	11.8%[46.1 µM]	46.2%[activator]	-2.2%	.	.	.	1.2%	31.8%
CN1C(=O)C(Cc2ccsc2)C(=O)N(C)C1=O	?	3.9%	3.5%	5.5%	-1.1%	-0.5%	1.8%	7.3%
CCOC(=O)/C=C1\CN(CCC(C)C)S(=O)(=O)c2ccccc21	.	17.2%	-3.8%	.	.	0.3%	.	16.4%
